KCNQ2 pot – enhances the rat KCNQ2 potassium channel; O88943; CHO-K1 KCNQ2, FluxOR thallium flux fluorescence; hits give high values; B-score at 10 µM; actives 0.54% (n = 310,000); AID 2239;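 active = fluorescence ratio B-score at least 3 SD of library B-scores, with initial fluorescence B-score within 3 SD, cut at about 5.3 in these data; same plate scores as AID 2156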;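 note: B-score of peak minus minimum over baseline fluorescence ratio after K+ and Tl+ stimulus; positive B-score means potentiation of KCNQ2 with more thallium influx and brighter signal; only the inactives scoring about 0 or higher are listed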
Target sequence (O88943 whole entry, looked up): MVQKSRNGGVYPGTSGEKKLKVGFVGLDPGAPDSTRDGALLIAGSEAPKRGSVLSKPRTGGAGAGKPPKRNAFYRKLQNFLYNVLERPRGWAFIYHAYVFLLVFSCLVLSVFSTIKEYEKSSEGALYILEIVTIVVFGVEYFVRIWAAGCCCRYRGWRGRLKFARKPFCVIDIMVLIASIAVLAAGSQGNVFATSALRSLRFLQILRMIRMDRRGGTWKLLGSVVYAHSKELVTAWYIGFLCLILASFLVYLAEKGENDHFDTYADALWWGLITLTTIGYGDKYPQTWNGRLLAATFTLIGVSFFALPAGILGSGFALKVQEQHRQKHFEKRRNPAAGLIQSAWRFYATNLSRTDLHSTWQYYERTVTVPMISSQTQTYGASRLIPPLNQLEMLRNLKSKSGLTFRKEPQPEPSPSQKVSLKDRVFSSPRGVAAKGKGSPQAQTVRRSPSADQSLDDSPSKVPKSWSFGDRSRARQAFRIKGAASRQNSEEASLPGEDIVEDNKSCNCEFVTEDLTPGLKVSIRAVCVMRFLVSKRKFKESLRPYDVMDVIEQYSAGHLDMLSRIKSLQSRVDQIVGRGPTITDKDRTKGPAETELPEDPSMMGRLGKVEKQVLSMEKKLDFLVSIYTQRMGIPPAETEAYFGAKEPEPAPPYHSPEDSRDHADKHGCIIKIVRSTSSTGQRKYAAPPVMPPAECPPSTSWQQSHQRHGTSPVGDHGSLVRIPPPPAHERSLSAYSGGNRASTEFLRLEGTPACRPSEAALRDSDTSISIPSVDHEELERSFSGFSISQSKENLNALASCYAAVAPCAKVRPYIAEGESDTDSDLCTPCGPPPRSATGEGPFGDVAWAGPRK
KCNQ2 pot baseline – second read-out of KCNQ2 pot, no call of its own (marks repeat the call); B-score; compound at 10 µM; measured here: initial fluorescence intensity artifact check;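 brightness before thallium and not channel activity; 0 = typical well and far values either way flag optical interference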
Numbers without * were called inactive. Some of the compounds tested. The share of hits here may be higher or lower than overall.

SMILES | KCNQ2 pot | KCNQ2 pot baseline
CCCN1CCN(CCCNC(=O)Cn2cc3c(n2)CCCC3)CC1 | 0.2 | 0.48
COCCn1c(SC(C)C(=O)Nc2ncc(Cl)cc2Cl)nc2ccccc21 (stereo unspecified) | 0.38 | 1.7
CC(C)Oc1ccc(C(=O)NC(C)(C)CO)cc1 | 0.7 | 0.95
CCOc1c(C)cnc2c1c(=O)n(CC(=O)NCC1CCCO1)c(=O)n2C (stereo unspecified) | 0.01 | 0.01
CCOc1ccc(N=C(NC#N)SCC(=O)NC2CC2)cc1 | 0.12 | 0.02
Nc1nc(Nc2cccc(Cl)c2)nc(NCCO)c1[N+](=O)[O-] | 1.6 | 0.63
O=c1c2ccccc2[nH]c(=S)n1CCN1CCc2ccccc2C1 | 2.3 | -0.2
O=[N+]([O-])c1ccc(Oc2ccc(Oc3ccc(C(F)(F)F)cn3)cc2)nc1 | 1.2 | -1.2
N#Cc1cc2c(nc1SCC(=O)N1CCCCC1)CCCCC2 | 4.6 | -2.4
COc1ccc(NC(=O)c2ccc(S(=O)(=O)N(C)c3ccccc3)cc2)cn1 | 1.4 | -0.47
COC(=O)c1sc(NC(=S)NC(=O)c2ccc(F)cc2)nc1C | 2.3 | -2.7
Cc1[nH]c2ccccc2c1[C@H]1[C@@H](CC#N)C1(C)C | 0.19 | 0.02
CC(C)(C)NC(=O)CCSc1nnc(-c2ccco2)o1 | 1.4 | 0.57
CN(Cc1ccccc1)S(=O)(=O)c1ccc2[nH]c(=O)ccc2c1 | 0.3 | 0.68
COC(=O)c1cccc(NC(=O)c2ccc(OC)c(Cl)c2)c1 | 1.1 | 0.42
O=S(=O)(Nc1ccc(F)cc1)c1ccc(NS(=O)(=O)c2cccs2)cc1 | 0.57 | 2.4
Cc1ccc(C)c(NC(=O)C2CCCN2/C=C/C(=O)C(F)(F)F)c1 (stereo unspecified) | 0.58 | 0.02
COc1ccc(NS(=O)(=O)c2ccc(N3C(=O)CCC3=O)cc2)cc1 | 1.4 | 0.27
Cc1cc2c(s1)c1cnn(Cc3ccccc3F)c(=O)c1n2C | 0.4 | -0.76
c1ccc(-n2cnnc2SCc2cn3ccccc3n2)cc1 | 0.4 | -3.7
COc1ccccc1NC(=O)Nc1nc(CC(=O)Nc2ccc(F)c(F)c2)cs1 | 0.22 | -2.3
COc1ccc(/C=N/NC(=O)C(C)n2cnc3ccccc3c2=O)cc1OC (stereo unspecified) | 1.6 | 0.18
CCN(CC)CCn1c(NC(=O)c2ccc(C)cc2)nc2ccccc21 | 0.19 | -0.82
CC(=O)NC1=NN(C(C)=O)C2(S1)C(=O)N(C(C)=O)c1ccc(C)cc12 (stereo unspecified) | 1.2 | 0.67
O=C(CSc1nnc(Cc2cc(=O)[nH]c(=O)[nH]2)n1-c1ccc(F)cc1)NC1CCCC1 | 0.24 | 2.2
FC(F)Oc1ccc(NC(=S)NCc2ccccc2)cc1 | 2 | -3.7
O=C(c1cc([N+](=O)[O-])ccc1Cl)N1CCN(c2ccc(F)cc2)CC1 | 0.24 | 1.3
Cc1ccnc(SCc2ccc(C(=O)O)cc2)n1 | 0.42 | 1.9
O=C(NN1C(=O)c2ccccc2NC1c1ccoc1)c1ccccc1 (stereo unspecified) | 0.66 | 1.6
Cc1ccc(C)c(NC(=S)NC(NC(=O)/C=C/c2ccccc2)C(Cl)(Cl)Cl)c1 (stereo unspecified) | 0.14 | -1.3
CCC(C)NC(=O)CSc1nc2ccccc2c(=O)n1CCCN1CCCCC1 (stereo unspecified) | 0.55 | -0.73
CC(C)CNC(=O)NC(=O)COc1c(F)c(F)cc(F)c1F | 1.5 | -1.1
COc1cccc(SCc2noc(C(=O)NCc3ccccc3)c2C(=O)NCc2ccccc2)c1 | 0.45 | 0.72
CCN(CC)S(=O)(=O)c1ccc(N/N=C/c2ccccc2OCC(=O)O)c([N+](=O)[O-])c1 | 2.2 | -1.3
CCOC(=O)C1=C(c2ccccc2)Nc2nc(C)nn2C1c1cccc(OC)c1OC (stereo unspecified) | 1.8 | -0.83
CC(=O)c1c(C)[nH]c(C(=O)OCc2ccccc2F)c1C | 1.9 | -3.3

Ordered by molecular weight (high to low): four of the compounds above
SMILES | KCNQ2 pot | KCNQ2 pot baseline
Cc1ccc(C)c(NC(=S)NC(NC(=O)/C=C/c2ccccc2)C(Cl)(Cl)Cl)c1 (stereo unspecified) | 0.14 | -1.3
CCOC(=O)C1=C(c2ccccc2)Nc2nc(C)nn2C1c1cccc(OC)c1OC (stereo unspecified) | 1.8 | -0.83
CCC(C)NC(=O)CSc1nc2ccccc2c(=O)n1CCCN1CCCCC1 (stereo unspecified) | 0.55 | -0.73
CC(=O)c1c(C)[nH]c(C(=O)OCc2ccccc2F)c1C | 1.9 | -3.3

The results go on.
SMILES | KCNQ2 pot | KCNQ2 pot baseline
CCCC(=O)N(c1ccc2oc(C)c(C(C)=O)c2c1)S(=O)(=O)c1ccc(C(=O)O)cc1 | 0.67 | -0.09
CC(C)(C)C(=O)Nc1ccc(N2CCCC2)cc1 | 0.16 | 0.34
Cc1ccc2[nH]c(=O)c(CN(Cc3ccco3)C(=O)CN3CCCC(C)C3)cc2c1 (stereo unspecified) | 0.19 | 0.02
O=C(O)c1ccc(-n2nc(C(F)(F)F)c3c2-c2ccoc2CC3)cc1 | 0.26 | -0.42
N#Cc1c(NC(=O)Cn2c(=O)oc3ccccc32)oc(-c2ccccc2)c1-c1ccccc1 | 0.7 | -0.31
O=C(CSc1n[nH]c(=O)[nH]c1=O)N/N=C/c1ccccc1O | 0.06 | 0
NS(=O)(=O)c1ccc(CCNCc2ccccc2OCc2ccc(F)cc2)cc1 | 0.56 | 1.1
O=C(NCc1ccc(F)cc1)c1ccc(CS(=O)(=O)Cc2ccccc2F)o1 | 1.6 | 0.43
[O-][n+]1c2ccccc2[n+]([O-])c2cc(O)ccc21 | 0.07 | 0.79
O=C(NCCSCc1ccco1)c1ccc(CN2CCOCC2)cc1 | 2 | -1.5
Cc1ccc(-c2nnc(SCc3nc4ccccc4[nH]3)n2Cc2ccco2)cc1 | 0.65 | 1.4
O=C(N/N=C/c1cn(-c2ccccc2)nc1-c1cc2ccccc2o1)c1ccccc1Br | 0.25 | 1.1
COc1ccc(-c2nnn(CC(=O)c3ccc4c(c3)OCCO4)n2)cc1OC | 0.5 | 1
CCCC(C)NC(=O)C1c2ccccc2Oc2ccccc21 (stereo unspecified) | 0.24 | 0.25
COc1ccc(-c2nnc(N(C)C(=O)C3CCOC3)s2)cc1 (stereo unspecified) | 0.47 | -0.07
Cc1sc2nc(CSCC(=O)Nc3c(Cl)cccc3Cl)[nH]c(=O)c2c1C | 0.73 | 0.61
COC(=O)c1sc(NC(=S)NNC(=O)c2c(Br)c(C)nn2C)c(C(=O)OC)c1C | 1.9 | 0.27
COc1cccc(/C=N/n2c(-c3n[nH]c4c3CCC4)n[nH]c2=S)c1O | 1 | -1.7
COc1ccc(CCNC(=O)CCCn2c(=O)c3cccn3c3cccnc32)c(OC)c1OC | 0.81 | 0.64
CCN1C(=O)[C@H]2[C@@H](c3ccc(-c4ccc(OC)cc4)cc3)N[C@@](C)(C(=O)OC)[C@H]2C1=O | 1.5 | -1.2
COc1ccc(C2CC(c3ccc(OC)cc3)n3nc(NS(C)(=O)=O)nc3N2)cc1 (stereo unspecified) | 0.65 | -0.02
CCOc1ccc2ccccc2c1C1NC(=O)N(C)C(C)=C1C(=O)OCCOC (stereo unspecified) | 0.37 | 0.96
CCC(=O)c1ccc(OCC(=O)N(C)CC(=O)Nc2cccc(F)c2)cc1 | 0.09 | -1.6
O=C(O)c1cccc(NC(=O)c2cn(-c3ccccc3)nc2-c2cc3ccccc3o2)c1 | 0.84 | 0.28
CCN(CC(=O)Nc1c(F)cccc1F)C(=O)c1ccc(COc2ccccc2)cc1 | 1.8 | 0.02
CCc1ccc(OCC(=O)NNC(=O)Cc2cccs2)cc1 | 1.1 | 1.2
Cn1c(=O)c2c(ncn2Cc2ccc(Cl)c(Cl)c2)n(C)c1=O | 1.2 | 0.87
COC(=O)Cc1ccc(NC(=S)NCc2ccccc2Cl)cc1 | 0.2 | -1.5
CCO/N=C(/c1nonc1N)N1CCN(c2ccc([N+](=O)[O-])cc2)CC1 | 0.81 | -1.5
Cc1nn(CCC(=O)O)c2nc(-c3cccnc3)cc(C(F)(F)F)c12 | 1.8 | -1.9
Cc1ccc(C)c(OCCC(=O)OCC(=O)NCc2ccccc2)c1 | 0.45 | -0.16
CCCCNC(=O)c1ccc2c(c1)N(C)C(=O)c1ccccc1S2 | 3 | 0.85
O=c1[nH]sc2ccccc12 | 6.7* | -3*
O=C(NCCCc1ccc(F)cc1)C1CCC(=O)N(CCCN2CCCC2=O)C1 (stereo unspecified) | 0.67 | -0.61
CCn1c(SCC(=O)Nc2sc3c(c2C#N)CCCC3)nnc1-c1ccncc1 | 0.97 | 0.29
O=C(CNC(=S)N(Cc1ccccc1)Cc1cccnc1)NCCN1CCOCC1 | 0.46 | 1.8
CC1=CC(C)C(/C=N/n2cnnc2)C(C)C1 (stereo unspecified) | 0.79 | -0.09
COC(=O)c1ccc(C)c(N(CCO)CCO)c1 | 1.7 | 0.79
COC(=O)c1sccc1NC(=S)N1CCN(C)CC1 | 1.1 | -1.1
Clc1ccc(OCc2nnc3n2CCCCC3)c(Cl)c1 | 1.6 | -0.95
Cc1nc(NNC(=O)c2ccccc2)cc(-c2ccccc2)n1 | 3.4 | 1.2
O=C(CSc1cccs1)Nc1ccc2ccccc2c1 | 0.06 | 0.01
Cc1ccc2c(c1)c(C)c(C)n2CC(O)Cn1nc(C)cc1C (stereo unspecified) | 1.1 | -1.1
Cc1cc(C)cc(NC(=O)/C(C#N)=C/c2cn(CC(=O)NCc3ccco3)c3ccccc23)c1 | 0.58 | 0.7
Cc1ccc(C)c(S(=O)(=O)NCc2ccc(C(=O)N3CCN(C)CC3)cc2)c1 | 0.09 | 0.48
CCOC(=O)N1CCC(NC(=O)CN(c2ccc(C(C)C)cc2)S(=O)(=O)c2c(C)nn(C)c2C)CC1 | 1.3 | -0.22
CCCN1C2CCCC1CC(NC(=O)c1cccc(Cl)c1)C2 (stereo unspecified) | 0.47 | 0.22
O=C(Nc1cccnc1)c1ccc(COCC(F)(F)F)cc1 | 1.6 | 0
O=C(CSc1nnc(Cc2ccccc2)n1Cc1ccccc1)NCc1ccco1 | 1.3 | -0.46
N#CC1(NC(=O)COC(=O)CSc2ccc(F)cc2)CCCCC1 | 0.35 | 2.4
CCOc1ccc(OCC(=O)Nc2ccc(OC)cc2[N+](=O)[O-])cc1 | 0.72 | -0.52
Cc1ccccc1NC(=O)COC(=O)c1cccnc1 | 0.43 | -1.1
COCCn1c(SCC(=O)Nc2cccc(C(=O)OC)c2)nc2ccccc2c1=O | 0.1 | -0.04
Cc1cc(C(C)(C)C)ccc1OCC(=O)N/N=C\c1c(C)n(C)n(-c2ccccc2)c1=O | 0.16 | -0.72
COc1ccc(-c2nc(SC(CC(=O)NCCN3CCOCC3)c3cccs3)n[nH]2)cc1 (stereo unspecified) | 0.23 | 3.1
CCOCCCNC(=O)NC12CC3CC(CC(C3)C1)C2 | 2.6 | -0.3
CC(C)c1cc(NCc2ccccn2)n2c(nc3ccccc32)c1C#N | 0.03 | 0.45
c1ccc2nc(-c3ccc(N4CCOCC4)cc3)ccc2c1 | 0.11 | 1.5
CCSC1=C(C#N)C2(CCCCC2)C(C#N)=C(N)N1 | 1.8 | -1.7
CC(C)=C1C2CCC1C1C(=O)N(c3ccc4c(c3)OCO4)C(=O)C21 (stereo unspecified) | 1.1 | -0.08

One compound at a time, as listed above:
`CCSC1=C(C#N)C2(CCCCC2)C(C#N)=C(N)N1` is listed as KCNQ2 pot: 1.8; KCNQ2 pot baseline: -1.7
`CCOCCCNC(=O)NC12CC3CC(CC(C3)C1)C2` is listed as KCNQ2 pot: 2.6; KCNQ2 pot baseline: -0.3
`CC(C)=C1C2CCC1C1C(=O)N(c3ccc4c(c3)OCO4)C(=O)C21` (stereo unspecified) is listed as KCNQ2 pot: 1.1; KCNQ2 pot baseline: -0.08

(listing goes on)
SMILES | KCNQ2 pot | KCNQ2 pot baseline
Cc1ccc(CNC(=O)CCC2CCCN(Cc3ccc4cccc(F)c4n3)C2)o1 (stereo unspecified) | 0.06 | 0
CC(C)c1ccc(NC(=O)CN2C(=O)COc3ccc(S(=O)(=O)N4CCOCC4)cc32)cc1 | 0.01 | -1
COC(=O)CNC(=O)c1ccc(C)s1 | 1.3 | 1.2
Cc1ccc([N+](=O)[O-])cc1-c1ccc(/C=N/NC(=O)CN2CCOCC2)o1 | 1.6 | -0.41
CN1CCN(C(=O)CCC(=O)c2ccc(F)cc2)CC1 | 0.2 | -0.24
CN1CCN(C(CNC(=O)C(=O)NC2CCCC2)c2ccc(F)cc2)CC1 (stereo unspecified) | 0.07 | -1.7
NC(=O)CCN(C1CCCCC1)S(=O)(=O)c1cccc2nsnc12 | 0.55 | -0.59
COc1ccc(CCNC(=O)c2ccc(OCC(=O)N3CCOCC3)c(OC)c2)cc1 | 1.9 | -0.03
O=C(COC(=O)CNC(=O)c1ccc(Cl)cc1Cl)NC1CCCCC1 | 0.43 | -1.7
COc1ccccc1NC(=O)c1cccc(N2C(=O)C3C4C=CC(C4)C3C2=O)c1 (stereo unspecified) | 0.01 | -0.23
COc1ccc(CCCc2nnc(SCC(=O)Nc3nc(C)cs3)n2C)cc1 | 0.38 | -0.62
COc1ccc(C2=C(O)C(C)N(c3ccccc3)C2=N)cc1OC (stereo unspecified) | 1.4 | -0.77
COc1ccc(S(=O)(=O)N2Cc3ccccc3CC2C(=O)Nc2nccs2)cc1OC (stereo unspecified) | 0.98 | 1.5
CCCn1c(-c2ccc(OC)cc2)nc2nc3ccccc3nc21 | 0.14 | -0.8
Cc1cc(C)c2c(N)c(C(=O)N3CCN(c4ncccn4)CC3)sc2n1 | 0.11 | -0.84
COc1ccc(-c2ccc3ccccc3n2)cc1 | 1.4 | -1.4
